Screening results from PubChem.
TsaE inh – displaces an ADP probe from E. coli YjeE (TsaE); P0AF67; purified YjeE, fluorescence polarisation of a bound ADP probe; Potency, µM; 71,000 tested, 0.05% active; active = well fitted falling curve; inconclusive = weaker or top-dose-only fall, or a rising curve; inactive = flat or poorly fitted curve;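 further: top concentration of the series not given in the record; excess ADP was the control for the full effect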
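Purified YjeE (10 uM) with BODIPY Texas Red-labeled ADP probe (2 uM); compounds pin-transferred, 15 min at room temperature. Binding inhibition read as decreased fluorescence polarization; ADP titration as control.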
Bst PK mod – pyruvate kinase (B. stearothermophilus) modulation. partly purified Bacillus stearothermophilus pyruvate kinase, luminescence ATP production; ribose 5-phosphate activator present at AC10. Potency, µM. 51,000 tested, 1.2% active. AID 361; in the data active means potency below about 11 µM; inconclusive means mostly about 12 µM to 25 µM; inactive means weaker than that;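 the screen sought inhibitors and activators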;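 further: potency means the concentration at half of the fitted maximal effect; scaled between full activation by ribose 5 phosphate and full inhibition by luteolin; about four in five hits inhibit and the cells do not say which; series up to 57 µM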
Active calls of the source: *; i = inactive; ? = inconclusive; nt = no result given. These rows are one share of the data, so the mix of outcomes need not match the whole.

SMILES | TsaE inh | Bst PK mod
COc1ccc2nc(NC(=O)CCNS(=O)(=O)c3ccc4c(c3)oc(=O)n4C)sc2c1 | i | >57
Cc1noc(C)c1-c1nc(NCc2cccnc2)c2ccccc2n1 | i | nt
N#Cc1cccc(NC(=O)c2ccccc2C(=O)O)c1 | i | nt
COc1cccc(-c2cn3nc4c(nc3n2)CCCC4)c1 | i | 4.6*
COc1ccc(Cn2c(C3CC3)nc3ccc(NC(=O)c4ccco4)cc3c2=O)cc1 | i | nt
S=c1[nH]nc(SCc2ccccc2Cl)c2[nH]cnc12 | i | nt
O=C(Oc1ccc2ccccc2c1Cl)N1CCCC1 | i | nt
COc1cccc(C2C(C(=O)c3sc(C)nc3C)=C(O)C(=O)N2CCN2CCOCC2)c1OC (stereo not drawn) | nt | >26
O=c1oc2ccccc2c(O)c1C=NCc1ccccn1 | i | >11
O=C(OCc1ccccc1)c1ccc(Br)o1 | i | >57
COc1ccc(C(=O)N2CCC3(CC2)CN(C(=O)Nc2ccccc2)C3)cc1 | i | nt
CCNC(=O)CN(Cc1ccccc1)S(=O)(=O)c1ccccc1 | i | nt
NC(=O)c1ccc(-n2nnnc2Oc2ccccc2C(=O)N2CCOCC2)cc1 | i | >57
Cc1ccc(CSc2nnc(-c3ccccn3)n2C)cc1 | i | >57
O=C(NC1=NCCS1)C1COc2ccccc2O1 (stereo not drawn) | i | 4.3*
COc1ccc2[nH]cc(CCNc3ncncc3-c3ccc4c(c3)OCO4)c2c1 | i | nt
O=C(CCCCCn1c(SCC(=O)c2ccccc2)nc2ccccc2c1=O)NCc1ccco1 | i | >57
CC1CCCCN1CCCn1c(=S)[nH]c2ccccc2c1=O (stereo not drawn) | i | >57
COC(=O)CN(c1cccc(OC)c1)S(C)(=O)=O | i | >57
O=C(c1cc(C(F)(F)F)cc(C(F)(F)F)c1)N1CCC2(CC1)CN(c1ccccn1)C2 | i | nt
COC(=O)c1cc(NC(=O)Cc2coc3cc(OC)ccc23)cc(C(=O)OC)c1 | i | >57
COc1ccccc1N(CC(O)CN1C(=O)NC(C)(C)C1=O)S(=O)(=O)c1ccc(C)cc1 (stereo not drawn) | i | nt
COc1ccc(N2CCCn3c2nc2c3c(=O)n(Cc3ccc(F)cc3)c(=O)n2C)c(OC)c1 | i | >57
Cc1cc(=O)n2[nH]c(COc3ccccc3)nc2n1 | i | >57
O=C(c1cccs1)N1CCN(CCc2ccccc2)CC1 | i | >57
CCc1c(C)nc2ncnn2c1NCCc1ccc(OC)cc1 | i | >57
COCCNC(=O)CNS(=O)(=O)c1ccc2nc(C)sc2c1 | i | >57
O=C(COc1ccc(S(=O)(=O)N2CCCCC2)cc1)NC1CCCCC1 | i | >57
COc1cccc2c(=O)n(CC(=O)N3CCCCCC3)ccc12 | i | nt
CC(C)NC(=O)c1cc(=O)n(C)c(=O)n1C | i | >57
COCCNC(=O)C(c1cccs1)N(C(=O)Cn1nnc2ccccc21)c1ccc2c(c1)OCO2 (stereo not drawn) | i | >57
N#CCCN(Cc1cccnc1)C(=O)Nc1cccc(Cl)c1 | i | >57
COC1(OC)C(=N/O)/C(=N\O)CCC1O (stereo not drawn) | i | >57
COc1cc(Br)cc(CN2CCN(C/C=C/c3ccccc3)CC2)c1O | i | >57
CCN1C(=O)N(CN2CCOCC2)C2C1N(CN1CCOCC1)C(=O)N2CC (stereo not drawn) | i | >57
Cc1ccccc1CN1CCN(CC(=O)NCc2ccccn2)C1=O | i | nt
O=c1[nH]c(CN2CCc3ccccc32)nc2scc(-c3cccs3)c12 | i | >57
COc1cc(NC(=O)c2cc(C)on2)cc(OC)c1OC | i | >57
COc1ccc(-c2cc(C(N)=O)nc(N3CCCCCC3)n2)cc1 | i | ?
CCN(CC)CCCNC(=O)Cc1c(C(=O)O)n(C)c2ccccc12 | i | >57
CC1(C)NC(=O)N(CCOc2ccc3c(c2)CCC3)C1=O | i | >57
O=c1c2c3c(sc2nc2n1CCCC2)CCC3 | i | nt
CCOc1ccc(N(CC(=O)NC2CCCC2)S(=O)(=O)c2c(C)[nH]c(=O)[nH]c2=O)cc1 | i | nt
C=COC(=O)CSc1snc(SCC(=O)OC)c1C#N | i | >57
CN(C)c1ncc2nc(-c3cc(F)cc(F)c3)c(=O)n(CCc3ccccc3)c2n1 | i | nt
N#CCSc1ncnc2sc3c(c12)CCC3 | i | >57
CC1(C)CC2CC(C)(CN2C(=O)COC(=O)c2n[nH]c(=O)c3ccccc23)C1 (stereo not drawn) | i | >57
CN(C)S(=O)(=O)n1cnc(-c2ccccc2)c1-c1ccccc1 | i | >57
OCCCNC(c1ccccc1)c1ccc(O)cc1 (stereo not drawn) | i | >57
COc1ccc(C(=O)OCC(=O)NCc2ccco2)cc1OC | i | >57
CS(=O)(=O)N1CCC2(CCCN(Cc3ccc(C#N)cc3)C2)CC1 | i | nt
O=C(Nc1ccccc1)c1cc(N2CCOCC2)nc2ccccc12 | nt | >26
COc1ccc(N2CCN(C(=O)c3ccc(NS(=O)(=O)c4ccc(F)cc4)cc3)CC2)cc1 | i | >57
O=C(COc1ccccc1)N(Cc1ccco1)C1CCS(=O)(=O)C1 (stereo not drawn) | i | >57
CC(C)c1ccc(NC(=O)c2csnn2)cc1 | i | i
CCCCN1C(=O)CN(CCc2ccccc2)C(=O)C1c1ccc(OC)cc1 (stereo not drawn) | i | >57
O=C(O)c1ccc(-n2nnnc2SCc2ccccc2F)cc1 | i | nt
COc1cc(C(c2sc3nc(C)nn3c2O)N2CC(C)OC(C)C2)cc(OC)c1OC (stereo not drawn) | i | nt
Nc1nonc1-c1nc2ccccc2n1Cc1ccc(F)cc1 | i | >57
Cc1ccc(NC(=O)C2CC(c3ccc(F)cc3)=NO2)cc1 (stereo not drawn) | i | >57

Laid out differently: results already given
Every second line gives: TsaE inh, Bst PK mod
COc1ccc(C(=O)OCC(=O)NCc2ccco2)cc1OC
  i, >57
O=C(COc1ccc(S(=O)(=O)N2CCCCC2)cc1)NC1CCCCC1
  i, >57
O=C(c1cccs1)N1CCN(CCc2ccccc2)CC1
  i, >57
O=C(c1cc(C(F)(F)F)cc(C(F)(F)F)c1)N1CCC2(CC1)CN(c1ccccn1)C2
  i, nt
Cc1ccc(NC(=O)C2CC(c3ccc(F)cc3)=NO2)cc1 (stereo not drawn)
  i, >57

Whole records, quoted from the list. Order of screens: TsaE inh, Bst PK mod
`CS(=O)(=O)N1CCC2(CCCN(Cc3ccc(C#N)cc3)C2)CC1` is listed as i, nt
`O=C(COc1ccccc1)N(Cc1ccco1)C1CCS(=O)(=O)C1` (stereo not drawn) is listed as i, >57

Continuation.
SMILES | TsaE inh | Bst PK mod
Cc1nc(C)c(C(=O)C2=C(O)C(=O)N(CCN3CCOCC3)C2c2cccs2)s1 (stereo not drawn) | i | >57
CC(C)c1nc(NCC2CCCO2)c(C#N)c2c1COC(C)(C)C2 (stereo not drawn) | nt | >26
CC(=O)c1c(C(C)=O)c(C)n(-c2nc(-c3cccs3)c(C)s2)c1C | i | >57
COc1ccccc1NC(=O)c1cn(C)c(=O)c2cc(OC)c(OC)cc12 | i | >57
COc1ccccc1NC(=O)c1ccc(Br)o1 | i | >57
CCN1CCN(c2oc(-c3ccc(OC)cc3)nc2C#N)CC1 | i | i
CC(NS(=O)(=O)c1ccc(Br)cc1)C(c1cccs1)N1CCN(C)CC1 (stereo not drawn) | i | nt
Cn1c(=O)c2c(nc(NCc3ccco3)n2Cc2ccccc2Cl)n(C)c1=O | nt | >26
c1cncc(C(c2nnnn2C2CCCC2)N2CCN(Cc3ccc4c(c3)OCO4)CC2)c1 (stereo not drawn) | i | >57
O=C(Cn1c(CO)nc2ccccc21)Nc1cc(C(F)(F)F)ccc1N1CCOCC1 | i | >57
CCOC(=O)Cc1[nH]nc2c1C(c1cc(OC)ccc1OC)C(C#N)=C(N)O2 (stereo not drawn) | nt | >11
COc1ccccc1Nc1nc2ccccc2n1C | i | nt
Cc1ccc(N2CCN(C(=S)c3ccc(N(C)C)cc3)CC2)cc1 | i | >57
O=C(NCCN1CCN(c2ccccc2F)CC1)C1CCCN(S(=O)(=O)c2cnc[nH]2)C1 (stereo not drawn) | i | nt
O=C(Cn1ncc2c1-c1ccccc1OC2)N1CCN(c2ccccn2)CC1 | i | nt
CC[C@H](c1ccc(O)cc1)[C@@H](CC)c1ccc(O)cc1 | i | nt
CCCCCCN(CCCCCC)C(=O)Cc1c(-c2ccc(F)cc2)[nH]c2ccccc12 | i | nt
CCOC(=O)N1CCN(C(=O)Nc2ccc(Cl)cc2Cl)CC1 | i | >57
O=C(COC(=O)c1ccccc1C(=O)c1ccccc1)c1ccco1 | i | >57
O=c1c(-c2ccc(F)cc2)nc2cnc(N3CCOCC3)nc2n1CCc1ccccc1 | i | nt
COc1ccc(OCC(O)CNC(=O)c2ccc(Br)cc2)cc1 (stereo not drawn) | i | >57
O=C(O)CCC(=O)Nc1ccc(-c2nnc(-c3ccco3)o2)cc1 | i | nt
COC(=O)c1[nH]c2cccc(OC)c2c1NC(=O)CN1CCC(C(N)=O)(N2CCCCC2)CC1 | i | >57
CCCCNC(=O)CS(=O)Cc1nc(-c2ccc(C)cc2)oc1C (stereo not drawn) | i | nt
CSc1ccccc1N=CC1=C(O)CC(C)(C)CC1=O | i | nt
COc1cccc(NC(=O)NC2CCN(Cc3nnnn3Cc3ccc(F)cc3)CC2)c1 | i | >57
COc1ccccc1CN1CCCC2(CCN(C(=O)c3ccncc3)CC2)C1 | i | nt
Cc1cc(C)n(-c2nc3sc4c(c3c3nnc(SC(C)C)n23)CC(C)(C)OC4)n1 | i | >57
CN(C)c1ncc2nc(-c3cccs3)c(=O)n(-c3ccccc3)c2n1 | i | nt
CC1CCC(N2CCN(c3ncccn3)CC2)CC1 (stereo not drawn) | i | >57

Fetched by compound from the list above, 6 records:
SMILES | TsaE inh | Bst PK mod
COC(=O)c1[nH]c2cccc(OC)c2c1NC(=O)CN1CCC(C(N)=O)(N2CCCCC2)CC1 | i | >57
COc1cccc(NC(=O)NC2CCN(Cc3nnnn3Cc3ccc(F)cc3)CC2)c1 | i | >57
O=C(O)CCC(=O)Nc1ccc(-c2nnc(-c3ccco3)o2)cc1 | i | nt
CCOC(=O)N1CCN(C(=O)Nc2ccc(Cl)cc2Cl)CC1 | i | >57
CC[C@H](c1ccc(O)cc1)[C@@H](CC)c1ccc(O)cc1 | i | nt
COc1ccc(OCC(O)CNC(=O)c2ccc(Br)cc2)cc1 (stereo not drawn) | i | >57

Additional compounds
SMILES | TsaE inh | Bst PK mod
COc1ccc(CNc2nc(-c3ccccc3CN(C)C)nc3ccccc23)c(OC)c1 | i | nt
CCc1nn(CC(=O)NCCCN(Cc2ccccc2)C(C)C)c(=O)c2cc3sccc3n12 | i | >57
C=CCN1C(=O)C(O)=C(C(C)=O)C1c1ccccc1F (stereo not drawn) | i | nt
O=C(Cn1ccc2ccccc2c1=O)Nc1ccc2c(c1)OCO2 | i | >57
Cc1ccc2cc(CN(Cc3ccco3)C(=O)NCc3ccccc3)c(=O)[nH]c2c1C | i | >57
Cc1nnc(SCCN2C(=O)c3ccccc3C2=O)[nH]c1=O | i | >57
Cc1cc(C(F)F)n2nc(C(=O)O)nc2n1 | i | >57
CN=C(Nc1cc(C)nn1-c1ccccc1)c1ccccc1 | i | >57
O=C(Nc1ccc(NC(=O)C2CC2)nc1)c1cccs1 | i | nt
O=C(CSc1nc(-c2ccccc2Cl)ns1)NCc1ccco1 | i | >57
Nc1nc(Sc2ccc([N+](=O)[O-])c3nonc23)c2[nH]cnc2n1 | i | nt
COC(=O)c1nnn(-c2nonc2N)c1CSc1ccccn1 | i | nt
O=C(c1coc2ccccc2c1=O)N1CCN(c2cccc(C(F)(F)F)c2)CC1 | i | ?
CC(=O)N1CCC2(CC1)CCN(c1ccccn1)CC2 | i | nt
C=C(C)COc1ccc(-c2[nH]ncc2-c2ccccc2OC)c(O)c1 | i | >57
Cc1cc2ccccc2n1CCNC(=O)COc1ccccc1 | i | nt
Cc1noc(C)c1CSc1nnc(-c2ccncc2)n1-c1ccc(Cl)c(Cl)c1 | i | >57
CCOC(=O)c1ccc(NC(=O)CSC2=NC(=O)C(CC)C(=O)N2)cc1 (stereo not drawn) | i | >57
Cc1cc(NC(=O)c2cc(-c3cccc(Cl)c3)on2)no1 | i | >57
COc1ccc(CNC2CCCCC2C)c(OC)c1 (stereo not drawn) | i | >57
CC1CCN(C(=O)CSc2nnc(Cn3c(=O)sc4ccccc43)n2C)CC1 | i | nt
COc1ccccc1N(CC(=O)NC1CCCC1)C(=O)c1csnn1 | i | >57
Cc1nc2nc(C)c(CCC(=O)Nc3ccc4c(c3)OCO4)c(C)n2n1 | i | >57
CN(C(=O)c1ccc2c(c1)OCO2)C1(C(=O)NC2CCCC2)CCCCC1 | i | ?
O=C(O)c1ccc(C(=O)O)c(C(=O)Nc2ccc3c(c2)Cc2ccccc2-3)c1 | i | nt
CCC(=O)N1CCN(c2ccc(Cl)cc2NC(=O)c2ccc3c(c2)OCCO3)CC1 | i | >57
CN(C)C(=O)N1CCC(C(=O)NCc2ccc(F)cc2)CC1 | i | nt
CCOc1ccc(OCC)c(C2C(C#N)=C(N)N(c3cccnc3)C3=C2C(=O)CC(C)(C)C3)c1 (stereo not drawn) | i | >57
CC(=O)Nc1cc2c(cc1Br)OCCO2 | nt | >26
OCCCNc1ncnc2[nH]ncc12 | i | nt
O=S(=O)(Cc1ccc(Cl)cc1)N1CCCC1 | i | >57
Cc1cc(C)nc(NC(=O)c2c(-c3c(Cl)cccc3Cl)noc2C)n1 | i | >57
